# Compound activity as filed in PubChem BioAssay.
# VACV Venus inh – qHTS for Stage-Specific Inhibitors of Vaccinia Orthopoxvirus: Venus Reporter Primary qHTS. Vaccinia virus Venus reporter expression, fluorescence. Potency, µM (titrated, usually from 36.5 µM), for inactives: at the highest dose activity change, negative = inhibition, actives largely listed as inhibitors. 330,000 compounds, 0.46% hits; active means well fitted inhibition curve with a large enough effect; inconclusive means small, poorly fitted or top-dose-only effect; inactive means no such curve, though single readings can be large or run the other way; tested in A549 cells; also: nearly all actives have a fitted effect of over 30% in size; inactives centre near -10
# VACV mCherry inh – qHTS for Stage-Specific Inhibitors of Vaccinia Orthopoxvirus: mCherry Reporter Primary qHTS | Vaccinia virus mCherry reporter infection, fluorescence; about a quarter of the inactives have no number | Potency, µM (titrated, usually from 36.5 µM), for the others: at the top dose activity change, negative = inhibition, usual class: inhibitors | 310,000 compounds, 0.63% hits; active = well fitted inhibition curve with a large enough effect; inconclusive = small, poorly fitted or top-dose-only effect; inactive = no such curve, though single readings can be large or run the other way; tested in A549 cells; also: nearly all actives have a fitted effect of over 35% in size; inactives centre near -10
# * hit, by the source's call; i = inactive; ? = inconclusive; . = no result given; & = joins results of further samples; [ ] = remark or other dose. % is scaled to controls: 0 for no effect and ±100 for the full control effect; potency is read from the fitted curve at half-maximal effect. Rows were taken by chance; any-hit rate near 0.86%.
structure,VACV Venus inh,VACV mCherry inh
CCCCn1nc2cc(C(=O)NCc3ccc(OC)cc3)ccc2c1OCC,-26%,-2%
O=C(NCCc1ccccc1)c1ccc(Cn2c(SCc3ccccc3)nc3cccnc32)cc1,-12%,i
C=CCN1C(=O)NC(=O)/C(=C\c2ccc(-c3ccccc3[N+](=O)[O-])o2)C1=O,-14%,-9%
COCCCNC(=O)c1cc(OC)c(OC)c(OC)c1,-5%,-14%
CCOC(=O)c1c(C)n(C)c2ccc(OC(=O)c3ccc([N+](=O)[O-])cc3)cc12,-8%,-4%
O=C(Nc1cccc(S(=O)(=O)NC2=NCCC2)c1)c1ccccc1F,-11%,-7%
Cc1occc1C(=O)NCCc1cccc(Cl)c1,?,.
C/C(=C\c1ccco1)CN1CCOc2ccc(C(C)(O)COc3ccccc3)cc2C1 (stereo not drawn),5%,-11%
Cn1c(=O)[nH]c(=O)c2c1nc(N1CCN(Cc3ccccc3)CC1)n2CCSc1ncccn1,-5%,16%
CC(C)=CCC/C(C)=C/C=N/NC(=O)c1ccccc1[N+](=O)[O-],-16%,i
COc1cccc(CCNS(=O)(=O)CCNC(=O)c2cccc(OC)c2)c1,-14%,i
CSc1cnnc2ccccc12,-7%,i
Cc1ccccc1Oc1nc2c(c(=O)n(C)c(=O)n2C)n1Cc1ccc(Br)cc1,10%,9%
Cc1ccccc1S(=O)(=O)NC(=O)C1(C)CCN1C(=O)c1c(C)noc1C (stereo not drawn),-3%,54%[activator]
COc1ccc(N2C(=O)C(C)(C)C2c2c(O)ccc3ccccc23)cc1 (stereo not drawn),-8%,-15%
CC(C)CCNC(=O)c1cc(S(=O)(=O)N2CCc3ccccc32)cn1C,-11%,-2%
COc1cc2oc3ccccc3c2cc1N(CC(=O)N(C)C)S(=O)(=O)c1ccccc1,-19%,.
COc1ccc(/C(N)=N/OC(=O)c2cccc([N+](=O)[O-])c2C)cc1OC,1%,.
O=C(c1ccc(F)cc1F)N1CCC(N2CCC(C(=O)N3CCOCC3)CC2)CC1,1%[7.34 µM],-11%[7.34 µM]
CCC(C)(C(=O)NC1CCCC1)N(C(=O)CC1NC(=O)NC1=O)c1c(C)n(C)n(-c2ccccc2)c1=O (stereo not drawn),7%,0%
O=C(Nc1ccccc1)OC[C@@H]1C=CS(=O)(=O)N1Cc1ccc(Br)cc1,-15%,27%
COc1cc(/C=N/NC(=O)c2ccc(F)cc2)ccc1OC(=O)c1ccco1,-17%,i
CN1CCN(C(=O)c2ccc(-c3cnc4cccnn34)cc2)CC1,-13%,-27%
Cc1ccc2[nH]c(=O)c(CN(CCCN3CCOCC3)C(=O)Nc3cccc(Cl)c3)cc2c1,-16%,-6%
COc1ccccc1C(=O)N(Cc1ccccc1)c1ccc(C)cc1,-3%,i
Cn1cccc1Cc1nnc(SCC(=O)NCC2CCCO2)n1CCc1ccccc1 (stereo not drawn),4%,0%
COc1ccc(NS(=O)(=O)c2cc(C)ccc2C)cc1,?,?
Cc1ccc(C)n1CCN1CCN(S(=O)(=O)c2ccc(F)cc2F)CC1,-15%,i
Cc1cc(C(=O)CSc2nncs2)c(C)n1-c1c(C)n(C)n(-c2ccccc2)c1=O,-9%,-14%
CCOc1ccc(OCCCCn2ccnc2)cc1,-15%,i

# The listing continues:
structure,VACV Venus inh,VACV mCherry inh
C=CCNc1nc(-c2ccc(O)c(C(N)=O)c2)cs1,9%,-10%
Cc1cccc(Cc2ccc(Cl)nn2)c1,1%,-11%
CC(C)Oc1cccc(C2CC(=O)Nc3cc4c(cc32)OCO4)c1 (stereo not drawn),-26%,?
COCc1cc(C)nc(OCC(=O)N/N=C/c2ccc(O)cc2)c1C#N,-18%,-22%
CCn1cc(C(=O)NCC2CCCO2)c(=O)c2cc(S(=O)(=O)N(C)C)ccc21 (stereo not drawn),-8%,-5%
Cc1c(Cl)c([N+](=O)[O-])nn1CCCC(=O)Nc1cccc(Cl)c1Cl,-13%,-8%
CC1(C)CC2(OC2c2ccccc2[N+](=O)[O-])C(=O)c2ccccc21 (stereo not drawn),-5%,-14%
O=C(c1cccnc1)N1CCN(Cc2cccc(F)c2)CC1,-4%,i
COc1ccc(N2CCN(C(c3ccccc3F)c3sc4nc(-c5ccco5)nn4c3O)CC2)cc1 (stereo not drawn),-9%,-11%
Brc1ccc(-c2noc(-c3ccccc3)n2)o1,-13%,-4%
COc1cc(C)c(Cl)cc1S(=O)(=O)n1cnc2ccccc21,-10%,-10%
COc1ccc(C2CC(c3ccc(OC)cc3)n3nc(NC(=O)c4cccs4)nc3N2)cc1 (stereo not drawn),-21%,-14%
O=C(CSc1nc2ccccc2s1)N1CCCCC1,-13%,-19%
CCCc1ccc2c(C(F)(F)F)cc(C(F)(F)F)cc2n1,1%,3%
c1cnc(Nc2nc(-c3ccc4ccccc4c3)cs2)nc1,-4%,?
COc1cccc(CNC(=O)C2=C(C)C(=O)OC23CCC(C)CC3)c1 (stereo not drawn),-9%,-14%
CSc1cnc2c(=O)n(C)c(=O)[nH]c2n1,-6%,-4%
CCc1nc2ccccc2c(C(=O)OCCN2C(=O)c3ccccc3C2=O)c1C,-20%,-14%[1.46 µM]
Cc1cccc(C)c1NC(=O)CNC(=O)c1ccccc1,4%,-21%
COC(=O)[C@@]1(Sc2ccc(C)cc2)CC(=O)N(c2ccc3c(ccn3C)c2)[C@@H]1c1ccccc1,-5%,i
CCN(CC)c1c([N+](=O)[O-])c(=O)oc2ccccc12,-9%,-18%
CCNc1ccc(-c2nc(-c3ccco3)no2)cc1[N+](=O)[O-],-5%,-17%
O=C(c1ccc(Cl)c(Cl)c1)N1CCC(=O)N(C(COCc2ccc(Cl)cc2)Cc2ccccc2)CC1 (stereo not drawn),?,-17%
Cc1ccc2oc(C(=O)Nc3c(C(=O)Nc4cccc(Cl)c4)oc4ccccc34)cc(=O)c2c1,9%,-8%
O=C(O)c1cnnc2ccccc12,-12%,i
CC(=O)N1c2ccccc2C(=O)C1N1CCN(c2ccc(F)cc2)CC1 (stereo not drawn),-5%,-7%
CCOC(=O)c1c(-c2ccccc2)oc2ccc(OCc3ccc(C)cc3)cc12,-11%,-8%
O=C1C=C(NNC(=O)c2ccncc2)CC(c2ccccc2)C1 (stereo not drawn),-11%,i
O=C(c1ccc(N2CCCC2)c([N+](=O)[O-])c1)N1CCN(c2ccccn2)CC1,0%,i
COc1ccccc1NC(=O)CN(C)S(=O)(=O)c1ccc(F)cc1,-19%,.

# The last 3 records of the section above are carried over, then new ones follow:
structure,VACV Venus inh,VACV mCherry inh
O=C1C=C(NNC(=O)c2ccncc2)CC(c2ccccc2)C1 (stereo not drawn),-11%,i
O=C(c1ccc(N2CCCC2)c([N+](=O)[O-])c1)N1CCN(c2ccccn2)CC1,0%,i
COc1ccccc1NC(=O)CN(C)S(=O)(=O)c1ccc(F)cc1,-19%,.
CCN(CC)c1ccc(/C=N/NC(=O)CN2CCCc3ccccc32)cc1,-23%,-18%
O=C(/C=C/c1cc([N+](=O)[O-])ccc1OC(F)F)Nc1cccc2ccccc12,1%,-12%
CC1CCN(C(=O)CCc2nnc(-c3ccccc3)o2)CC1,-9%,-7%
O=[N+]([O-])c1ccc(Cl)c(S(=O)(=O)/N=C(/Sc2ccc(Br)cc2)c2ccccc2)c1,-14%,27%
Cc1cc(C(=O)CSc2nnnn2-c2ccc(O)cc2)c(C)n1C,-16%,-20%
O=C(NC(Cc1ccccc1)C(=O)O)/C(=C/c1ccccc1)NC(=O)c1cccc(Br)c1 (stereo not drawn),6%,i
CCc1ccc(N2CC(C(=O)Nc3ccccc3N3CCCC3)CC2=O)cc1 (stereo not drawn),?,?
Cc1sc2ncnc(N3CCOCC3)c2c1C,-7%,-15%
CC(=O)N1CCc2c(sc3c2c(=O)n(CCc2ccccc2)c(=O)n3CC(=O)Nc2ccccc2F)C1,8%,-5%
Cc1nc2nc(-c3ccccc3)[nH]n2c(=O)c1Cc1ccccc1,-5%,.
O=C(N/N=C\c1ccc(Cl)cc1)c1sccc1-n1cccc1,-11%,.
O=C(COc1ccccc1)N1CCN(CC2CC3C=CC2C3)CC1 (stereo not drawn),-24%,-9%
COc1cc(NC(=O)c2ccnc(N)c2)cc(C(=O)Nc2cccc(C(F)(F)F)c2)c1,-16%,i
Cc1ccc(-c2noc(-c3nnn(CC(=O)Nc4cc(Cl)ccc4C)c3N)n2)cc1,-5%,-6%
C[C@H]1CN([C@@H](C)CO)C(=O)c2cc(Br)cnc2O[C@@H]1CN(C)C(=O)C1CCC1,-17%,5%
CCOC(=O)C1CCCN(S(=O)(=O)c2cc(C(=O)OC)n(C)c2)C1 (stereo not drawn),-8%,-26%
COc1cccc2cc3c(=O)n(-c4ccccc4)nc-3oc12,-7%,3%
Cc1ccccc1CSCCNC(=O)CN(c1ccc2c(c1)OCO2)S(C)(=O)=O,-18%,-13%
CCCC(O)(CCN(C)C)c1ccc(OC)cc1 (stereo not drawn),-19%,-13%
CC(C)NC(=O)Nc1ccc2c(c1)C(=O)N([C@H](C)CO)C[C@H](C)[C@@H](CN(C)S(C)(=O)=O)O2,-6%,i
COc1ccc(NC(=O)CN(C)C(=O)c2sc3ccccc3c2Cl)cc1,-11%,-10%
COc1ccc(C2CC(c3cccs3)=NN2C(=O)COC(=O)c2cncc(Br)c2)cc1OC (stereo not drawn),-4%,-8%
O=C(CCN1C(=O)/C(=C/C=C/c2ccccc2)SC1=S)Nc1ccccn1,-3%,i
CN(C)S(=O)(=O)c1ccc(Cl)c(NC(=O)COC(=O)CN2C(=O)C3CCCCC3C2=O)c1 (stereo not drawn),-6%,2%
O=C(c1cnc2c(c1)COc1ccc(Cl)cc1-2)c1ccccc1O,-11%&-29%,-8%
COc1cccc(CC(=O)N[C@@H](CCSC)c2nc3ccccc3[nH]2)c1,-5%,-1%
COc1ccc(CNC(=O)COC(=O)CCOc2ccc(C)cc2)cc1OC,-11%,i
Cc1ccc(-n2nc3c(c2NC(=O)c2ccc4c(c2)OCO4)CS(=O)(=O)C3)cc1C,-14%,i
COc1ccccc1CN1CC(C(=O)NCC2CCCO2)CC1=O (stereo not drawn),2%,1%
COc1ccccc1CNS(=O)(=O)c1cc2c3c(c1)CCN3C(=O)CC2,-15%&-10%,-2%&-7%

# 4 consecutive compounds already listed, for reference:
structure,VACV Venus inh,VACV mCherry inh
CCN(CC)c1ccc(/C=N/NC(=O)CN2CCCc3ccccc32)cc1,-23%,-18%
O=C(/C=C/c1cc([N+](=O)[O-])ccc1OC(F)F)Nc1cccc2ccccc12,1%,-12%
CC1CCN(C(=O)CCc2nnc(-c3ccccc3)o2)CC1,-9%,-7%
O=[N+]([O-])c1ccc(Cl)c(S(=O)(=O)/N=C(/Sc2ccc(Br)cc2)c2ccccc2)c1,-14%,27%

# (continued)
structure,VACV Venus inh,VACV mCherry inh
Cc1ccc(OCCSc2ncnc3nc[nH]c23)cc1,-14%,-23%[1.46 µM]
Cc1cccc(NC(=O)Cn2cc(C(=O)c3ccco3)c3ccccc32)c1C,?,-6%
COc1ccc(-c2nn(Cc3ccccc3)cc2C(=O)NC2CC2)cc1OC,-2%,-12%
CCOC(=O)CCCCCC(=O)Nc1ccc2c(c1)CC(=O)N([C@H](C)CO)C[C@H](C)[C@H](CN(C)S(=O)(=O)c1ccc(OC)cc1)O2,-4%,-15%
O=C(COC(=O)C1=COCCO1)Nc1cccc(S(=O)(=O)N2CCOCC2)c1,-5%,i
O=C1NC(=O)C(c2ccccc2)(c2ccccc2)N1,-9%&-6%&-12%,-22%&-8%&-2%
NC(=S)N/N=C/c1ccccc1OCCSc1ccc(Cl)cc1,0.32µM*,0.089µM*
Cc1ccc(S(=O)(=O)NCCC(=O)N2CC(C)OC(C)C2)cc1 (stereo not drawn),-6%,-13%
CC(C)CCNC(=O)CN1C(=O)CCn2nc(-c3cn(C)c4ccccc34)cc21,-11%,-17%
Cc1ccc(-c2ccnc3c(Cl)c(C)nn23)cc1,-2%,i
O=C(N/N=C/c1cccs1)C1COc2ccccc2O1 (stereo not drawn),-28%,-16%
COc1ccc(N2C(=O)C(F)(F)C2c2ccc(C)cc2)cc1OC (stereo not drawn),-22%,i
Cc1ccc(NC(=O)c2ccc3c(c2)OCCO3)cc1C,-7%,6%
C=CCN1C(=O)c2ccc(C(=O)N(C)CC(=O)Nc3ccc(Br)cc3C)cc2C1=O,-10%,i

# Entries of single compounds from above. Screens in order: VACV Venus inh	VACV mCherry inh
# Profile of O=C(COC(=O)C1=COCCO1)Nc1cccc(S(=O)(=O)N2CCOCC2)c1 = -5%	i
# Profile of Cc1ccc(-c2ccnc3c(Cl)c(C)nn23)cc1 = -2%	i
# Profile of Cc1ccc(NC(=O)c2ccc3c(c2)OCCO3)cc1C = -7%	6%
# Profile of COc1ccc(N2C(=O)C(F)(F)C2c2ccc(C)cc2)cc1OC (stereo not drawn) = -22%	i
# Profile of CCOC(=O)CCCCCC(=O)Nc1ccc2c(c1)CC(=O)N([C@H](C)CO)C[C@H](C)[C@H](CN(C)S(=O)(=O)c1ccc(OC)cc1)O2 = -4%	-15%
